# GIV-Gai inh – inhibitors of GIV GBA-motif binding to rat Galpha-i3 | percent of control (FP), % (test concentration not listed) | Galpha-i3/FITC-GIV peptide fluorescence polarization, 90 min; hits give low values; scaled: aluminum fluoride 0%, vehicle 100% | actives 0.42% (n = 210,000) | P08753;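 active = replicate mean at 85% of control or lower, very high polarization wells dropped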;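 note: wells of about 15 µL received 100 nL stock; the first replicate is given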
# Target sequence (P08753 whole entry, looked up): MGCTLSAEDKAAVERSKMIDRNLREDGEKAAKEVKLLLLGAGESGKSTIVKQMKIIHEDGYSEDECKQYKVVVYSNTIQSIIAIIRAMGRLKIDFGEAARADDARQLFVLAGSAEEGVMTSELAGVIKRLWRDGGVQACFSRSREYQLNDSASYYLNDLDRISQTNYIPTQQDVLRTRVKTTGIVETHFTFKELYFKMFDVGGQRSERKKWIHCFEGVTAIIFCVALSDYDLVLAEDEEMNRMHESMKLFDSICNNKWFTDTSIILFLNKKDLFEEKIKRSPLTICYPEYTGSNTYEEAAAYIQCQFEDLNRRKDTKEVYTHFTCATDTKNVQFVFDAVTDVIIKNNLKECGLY
# HCMV UL50-53 inh – inhibitors of HCMV UL50-UL53 nuclear egress complex interaction; inhibition, % (no concentration beside the values); HTRF UL50-UL53 interaction, normalized percent inhibition; actives 0.15% (n = 190,000);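 active = both replicates at 50% or more, plus weaker picks with an unusually low signal ratio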;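 note: stock transfer was 100 nL into about 20 µL; 0% = negative control wells and 100% = wells with untagged competitor protein; inactives centre near -12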
# Sa growth inh – S. aureus growth inhibition; S. aureus RN4220 growth, OD600, 20 h, 42 °C; hits give low values; relative growth, % (test concentration not listed); actives 0.53% (n = 170,000);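 active = growth at 42 °C up to 50% and 20 or more points under that at 30 °C, or under 10% at both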;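 note: 300 nL library stock went into each well; scaled to the means of positive and negative controls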
# Sa growth inh second temp – recorded beside Sa growth inh, whose call it bears; relative growth, %; measured here: growth at 30 °C;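 optical density after 20 h as mean of two plates; 100% = untreated growth and lower means inhibition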
# An asterisk follows results filed as active; nt = not tested or not shown; & = joins results of further samples.
SMILES,GIV-Gai inh,HCMV UL50-53 inh,Sa growth inh,Sa growth inh second temp
Cc1ccc2c(Cl)cc(Cl)c(OC(=O)C3CC3)c2n1,nt,-24,37,0
COc1ccccc1Cn1cc(C(=O)c2ccc(C)cc2)c(=O)c2cc(F)cc(F)c21,102,-40,93,89
CCC(=O)Nc1ccccc1N1CCN(C(=O)CC)CC1,104,-6,97,102
O=C(NC(=S)Nc1nc(-c2ccc(Cl)cc2)cs1)C1CC1,101,-25,96,87
CC(C)(C)c1ccc(CSCc2nc3ccccc3[nH]2)cc1,108,nt,103,86
O=C(Nc1ccccc1Br)N1CCN(c2ccc(=O)n(-c3ccccc3)n2)CC1,104,-50,nt,nt
CC1(C)CC(NC(=O)C(F)(F)F)C(NC(=O)C(F)(F)F)C(C)(C)N1 (stereo not given),nt,-11,97,91
Cc1ccc(-c2cc(N)n3nc(-c4ccc(C)cc4)cc3n2)cc1,102,nt,96,88
CCOC(=O)c1ccccc1NC(=O)c1c(C)oc2ncnc(N3CCOCC3)c12,102,nt,83,97
O=C(O)CCSc1n[nH]c(=S)s1,nt,12,106,103
COc1cc(NC(=O)CC(C)S(=O)(=O)c2cc3c4c(c2)CCN4C(=O)CC3)cc(OC)c1 (stereo not given),97,nt,95,80
O=C(O)C1=CCNCC1,93,3&-8,nt,nt
CCc1c(C)sc2c1CCN(Cc1ccccc1F)C2c1ccccc1 (stereo not given),109,nt,-1.3*,-0.6*
CN(C)CCNC(=O)c1cc(-c2cccs2)nc2ccccc12,nt,-69,116,90
CCn1c(CNC(=O)c2ccc(OC)cc2)nnc1SCC(=O)Nc1cc(C)ccc1C,101,11,97,96
N#Cc1cnc(C2COc3ccccc3O2)nc1N (stereo not given),97,-9,108,81
O=C(c1ccccc1)c1cccnc1C(=O)O,98,-9,94,87
CC(C)c1cc(C(=O)N2CCc3ccccc32)nn1C1CCS(=O)(=O)C1 (stereo not given),97,10,nt,nt
C=CCn1c(SCC(=O)Nc2ccc(C)cc2)nc2sc(CC)cc2c1=O,103&103,-11,nt,nt
O=C(CN1N=C(c2ccccc2)CCC1=O)NCCN1CCN(c2ccccc2F)CC1,99,-19,106,87

# In the list so far, 2 contain a Cl atom:
SMILES,GIV-Gai inh,HCMV UL50-53 inh,Sa growth inh,Sa growth inh second temp
Cc1ccc2c(Cl)cc(Cl)c(OC(=O)C3CC3)c2n1,nt,-24,37,0
O=C(NC(=S)Nc1nc(-c2ccc(Cl)cc2)cs1)C1CC1,101,-25,96,87

# Returning to the listing, repeating the seven entries before the break.
SMILES,GIV-Gai inh,HCMV UL50-53 inh,Sa growth inh,Sa growth inh second temp
CN(C)CCNC(=O)c1cc(-c2cccs2)nc2ccccc12,nt,-69,116,90
CCn1c(CNC(=O)c2ccc(OC)cc2)nnc1SCC(=O)Nc1cc(C)ccc1C,101,11,97,96
N#Cc1cnc(C2COc3ccccc3O2)nc1N (stereo not given),97,-9,108,81
O=C(c1ccccc1)c1cccnc1C(=O)O,98,-9,94,87
CC(C)c1cc(C(=O)N2CCc3ccccc32)nn1C1CCS(=O)(=O)C1 (stereo not given),97,10,nt,nt
C=CCn1c(SCC(=O)Nc2ccc(C)cc2)nc2sc(CC)cc2c1=O,103&103,-11,nt,nt
O=C(CN1N=C(c2ccccc2)CCC1=O)NCCN1CCN(c2ccccc2F)CC1,99,-19,106,87
C=CCSc1ccccc1N,nt,-17,90,95
Cc1c(C(=O)N2CCC(C)CC2)c(S(=O)(=O)N2CCN(c3ccc(Cl)cc3)CC2)c(C)n1C,101,nt,89,87
COc1cc(OC)c(NC(=O)Cn2c(C)cc(C)c(S(=O)(=O)c3ccc(C)cc3)c2=O)cc1Cl,100,-36,nt,nt
Cc1cc(C)cc(NC(=O)CSc2oc(-c3ccccc3)nc2S(=O)(=O)c2ccc(Cl)cc2)c1,104,-50,89,100
CCOC(=O)CCn1ccc(=O)[nH]c1=O,94,6,83,114
O=C(O)C1CCOCC1,103,-20,96,81
N#Cc1c(-c2ccco2)c2c([nH]c1=O)-c1ccccc1OC2,109,-7,106,89
CCN1CCN(C(c2ccc(SC)cc2)c2c(O)cc(C)n(CCOC)c2=O)CC1 (stereo not given),102,nt,90,98
CCCCNC(=O)C1CCN(S(=O)(=O)c2cnc[nH]2)CC1,100,-19,92,90
COc1cccc(NC(=O)C(=O)NCCc2csc(-c3ccc(C(F)(F)F)cc3)n2)c1,101,nt,120,86
CCOc1ccc(-c2nc(CN3CCN(S(=O)(=O)c4ccc(Cl)cc4)CC3)cs2)cc1,nt,-15,90,98
O=C1c2[nH]nc(-c3ccccc3O)c2C(c2cccc(OCc3ccccc3)c2)N1CCCO (stereo not given),101,-12,102,86
Cc1nn(-c2ccccc2)c(C)c1CCc1nn2c(-c3ccccc3F)nnc2s1,100,-12,nt,nt
N#CC1C(=S)NC2=C(CCCC2)C12CCCCC2 (stereo not given),106,-24,54,18
CCc1ccc2ncc3c(-c4ccc(C)cc4)n[nH]c3c2c1,98,-22,nt,nt
NN1C(=O)c2ccccc2C1=O,nt,-31,90,95
Cn1cc(C(=O)Nc2ccc(F)c(F)c2)c2[nH]c(=O)n(-c3ccc(Cl)cc3)c(=O)c21,99,-23,nt,nt
CN(Cc1ccco1)C(=O)CSc1nn2c(=O)c(C(C)(C)C)nnc2s1,nt,-12,89,85
COc1cc(CNCCSc2nnnn2C)ccc1OCc1ccc(F)cc1,108,14,95,93
CC(=O)O/N=C(\C)c1[nH]c(C)c(/C(C)=N/OC(C)=O)c1C,106,-7,115,104
CCCSc1nc2c(c(=O)[nH]1)C(c1ccc(O)c(O)c1)CC(=O)N2 (stereo not given),108,4,nt,nt
COc1ccc(-c2noc(N3CCC(C(=O)Nc4ccc(C)cc4)CC3)n2)cc1,101,-14,nt,nt
Cc1ccc(C2=NN(C(=O)CCC(=O)O)C(c3ccc(Cl)cc3)C2)cc1 (stereo not given),112,-6,nt,nt
Cc1ccc(NC(=O)C2CC2)cc1NC(=O)C1CC1,107,-18,97,100
CC1Cc2ccccc2N1C(=O)CSc1nnc(CSc2ncccn2)n1C (stereo not given),106,41,88,110
Cc1ccc2cc3c(nc2c1)N(C(=O)c1cccc(Br)c1)CC3,111,-4,nt,nt
Cc1ccc(OCC(=O)Nc2ncn(Cc3ccc(Cl)cc3)n2)c(C)c1,99,-7,nt,nt
O=C(CSc1ccc2c(c1)CCC2)NN1C(=O)NC2(CCCCC2)C1=O,nt,-11,118,92
O=S(=O)(c1ccccc1)c1ncc(C(F)(F)F)cc1Cl,104,-11,nt,nt
O=C(NCCCN1CCOCC1)c1ccc2c(c1)N(Cc1ccccc1)C(=O)c1ccccc1S2,100,nt,64,22
C=CCc1ccc(OCC(=O)ONN)c(OC)c1,97,-1,102,117
O=C(NCc1ccccc1)c1ccc2c(c1)N(Cc1ccccc1)C(=O)CS2=O (stereo not given),104&97,-6&-18,95,89
COc1ccc(-c2cc(C(F)F)n3ncc(C(=O)N4CC(C)OC(C)C4)c3n2)cc1 (stereo not given),106,-81,97,78
Cc1nnc2sc(-c3cccs3)nn2c1=O,107,-88,nt,nt
O=C(c1ccco1)N1CCN(C(=O)c2cc3c(s2)CCCC3)CC1,nt,-4,96,88
Cc1cc(=O)oc2cc(OCC(=O)N3CCCC3)ccc12,nt,-32,102,84
CC1=C(C(=O)N2CCCCC2)C(c2ccc(Cl)cc2)n2c(nc3ccccc32)N1 (stereo not given),97,-10,102,82
N#Cc1c2c(c(-n3ccnc3)n3c1nc1ccccc13)CCC2,106,9,96,92
CC1CCC2(CC1)NC(=O)N(NC(=S)NCc1ccc3c(c1)OCO3)C2=O (stereo not given),nt,6,98,101
CCN(Cc1ccccc1)c1ccc(C=Nc2ccc(O)cc2)cc1,nt,-5,84,94
COc1ccc2c(CC(=O)OCc3cccc(C#N)c3)coc2c1,nt,-12,128,99
Cc1nn(CC(=O)NC2CCCCCC2)c2ccccc12,105,-2,99,91
Cc1nc(C)c(-c2ccc(SCC(=O)NC3CCCC3)nn2)s1,102,55,nt,nt
CNC(=O)Cn1cc2c(n1)-c1c(oc(C(=O)N3CCCC3)c1C)CC2,98,nt,104,88
OCCc1nc2ccccc2s1,nt,-4,95,94
Cc1ccc(-c2cn3c4ccccc4nc3n2CCCN2CCCCC2)cc1,nt,-1,97,67
CCc1ccc(NC(=O)CCN2C(=O)C3C4C=CC(C4)C3C2=O)cc1 (stereo not given),108,-16,115,96
COc1ccc(N(CC(=O)N2CCN(c3ccc(F)cc3)CC2)S(=O)(=O)c2c(C)n[nH]c2C)cc1,104,-1,108,73
Cc1noc(NS(=O)(=O)c2ccc(N3CC(O)=C(c4ccccc4)C3=N)cc2)c1C,nt,-17,94,91
Cc1ccc(NC(=O)C(=O)NCC(c2cccnc2)N2CCN(Cc3ccccc3)CC2)cc1C (stereo not given),105,-7,98,85
CN(C)c1ccc(C(CNS(=O)(=O)c2ccc3c(c2)OCCO3)N2CCOCC2)cc1 (stereo not given),100,-27,nt,nt
O=C(Cn1c(-c2cccs2)cc2cc(F)ccc21)NCCCN1CCN(c2ccc(F)cc2)CC1,104,nt,127,96
Cc1cccc(Cn2c(COc3ccc(Cl)cc3)nc3ccccc32)c1,97,-6,97,99
CC(NC(=O)CCN1C(=O)NC2(CCCC2)C1=O)c1cc(F)c(Cl)cc1Cl (stereo not given),nt,-14,105,82
CC1Cc2cc(S(=O)(=O)NC3CCCC3)ccc2N1C(=O)C1CC1 (stereo not given),103,-30,90,85
NC(=O)c1c(NC(=O)C2CCCN(C(=O)c3ccc4c(c3)OCCO4)C2)sc2c1CCCC2 (stereo not given),107,-6,nt,nt
CCOC(=O)c1ccc(NCc2nc3ccccc3[nH]2)cc1,108,7,92,93
COc1ccc(NC(=O)C2CCC(=O)N2C(=O)OCc2ccccc2)cc1 (stereo not given),nt,-4,109,94
COc1cc(C(=O)O)cc(I)c1OC1CCCC1,108,12,126,103
O=C1C2C3C=CC(CC3)C2C(=O)N1c1cccc(C(F)(F)F)c1 (stereo not given),99,-30,nt,nt

# Following part.
SMILES,GIV-Gai inh,HCMV UL50-53 inh,Sa growth inh,Sa growth inh second temp
Cc1ccc(C)c(NC(=O)CCc2c(C)n(C)c3cc(-c4ccccc4C)nn3c2=O)c1,105&103,nt,102,79
O=c1c(S(=O)(=O)c2ccc(F)cc2)c[nH]c2c(F)ccc(Cl)c12,98,-19,nt,nt
CCCCN1CCCCC1C(=O)Nc1c(C)cccc1C (stereo not given),98&102,-40&-37&-11&11&-10,83&90,90&88
CCC1=Nc2cc(C(=O)NCC3CCCO3)ccc2Sc2ccc(Br)cc21 (stereo not given),105,nt,113,84
CCCCCn1c(=N)c(C#N)cc2c(=O)n3ccccc3nc21,nt,-28,104,98
Cc1ccccc1-c1noc(-c2cccnc2N(C)Cc2ccc(Cl)cc2)n1,106,-16,95,89
O=C(c1ccco1)N1CCN(C(=O)c2cc(F)c(F)c(F)c2F)CC1,nt,-45,126,84
Cn1ccsc1=NC(=O)c1ccccc1OC(F)F,nt,-42,100,86
CCOc1ccc(NC(=O)Cn2cnc3c(nc4n3CCCCC4)c2=O)cc1,112,-7,nt,nt
O=C(CSc1n[nH]c(-c2cccs2)n1)N1CCCc2ccccc21,nt,-29,90,88
Cc1cc(C)c2c(CC(=O)N(Cc3ccc(Cl)cc3)Cc3ccco3)coc2c1,100,-4,107,82
N#Cc1c(NC(=O)CSc2ccccc2)sc2c1CCC2,nt,-11,114,95
Cn1cc(C(CNC(=O)Nc2ccccc2Cl)c2cccnc2)c2ccccc21 (stereo not given),106,1,nt,nt
CC(NC(=O)c1ccc(Br)o1)C1CC2CCC1C2 (stereo not given),nt,3,89,83
CCc1ccc(-n2c(N)c(C(=O)OC)c3nc4ccccc4nc32)cc1,106,nt,106,66
N#Cc1ccc(OCC(=O)NCc2ccco2)cc1,nt,-4,106,83
COc1ccc(Cl)cc1NC(=O)Cn1c(=O)n(-c2ccc(C)cc2)c(=O)c2ccc(C(=O)NCc3ccccc3Cl)cc21,97,-9,89,90
CC(C)c1nnc(NC(=O)c2nc(S(=O)(=O)Cc3ccccc3)ncc2Cl)s1,99,-44,7.3*,28*
Cc1ccc(-c2nnn(CC(=O)N(CC(=O)NCCC(C)C)c3ccc(F)cc3)n2)cc1,105,-1,95,88
O=S1(=O)CC2C(C1)N(c1ccccc1)C(=S)N2c1ccccc1 (stereo not given),100,nt,103,84

# In the list so far, these have a tert-butyl group:
SMILES,GIV-Gai inh,HCMV UL50-53 inh,Sa growth inh,Sa growth inh second temp
CC(C)(C)c1ccc(CSCc2nc3ccccc3[nH]2)cc1,108,nt,103,86
CN(Cc1ccco1)C(=O)CSc1nn2c(=O)c(C(C)(C)C)nnc2s1,nt,-12,89,85

# New compounds follow
SMILES,GIV-Gai inh,HCMV UL50-53 inh,Sa growth inh,Sa growth inh second temp
O=c1c2cn(Cc3ccccc3)c3ccccc3c-2nn1Cc1cccc(F)c1,97,5,nt,nt
O=c1[nH]ncc(N2CCc3ccccc3C2)c1Cl,103,-20,112,73
COc1ccc(Nc2nc(C(=O)NCc3ccco3)cs2)cc1,106,1,108,75
CCC(=O)Nc1ccc(NCc2ccccc2C)cc1,106,16,117,97
CSC(SC)=C(C#N)C(=O)c1cccc(Cl)c1,105,-6,98,93
COc1ccc(CCNc2nc(C)cc(=O)[nH]2)cc1OC,106,-10,117,83
CC(CCc1ccccc1)NC(=O)c1ccc(-n2nc(OCc3cccc(F)c3)ccc2=O)cc1 (stereo not given),96,10,nt,nt
N=C1C(c2nc3ccccc3s2)=C(O)CN1CCc1ccc(S(N)(=O)=O)cc1,109,-27,nt,nt

# Assay outcomes as filed in PubChem.
